From PubChem BioAssay
HIV Env fusion – HIV envelope-mediated fusion inhibition | HeLa-JRFL Env/CEM21 cell fusion, luciferase | inhibition, % at 12.3 µM | hit rate 1.1% among 360,000 | AID 651610;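 active means mean replicate inhibition score of at least 50 and every replicate individually at or above 50; inconclusive means only one of the two criteria met; inactive means mean below 50 and not all replicates reaching 50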;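 further: 0% = plate neutral controls and 100% = maraviroc near 300 nM; one replicate is shown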
Yeast UUG start – alters start codon recognition fidelity in yeast | S. cerevisiae UUG-firefly luciferase reporter, luminescence/redox ratio | activity score, % at 18.7 µM | hit rate 0.13% among 350,000;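 active means replicate mean at a twofold rise or more, about +100% in these data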;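 further: firefly luciferase made from a UUG start codon reports start codon fidelity; reporter light over untreated wells divided by growth signal over untreated wells; some hits fall short of that in this replicate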
PABP polyA inh – PABP-poly(A) binding inhibition; AID 2014; P11940; hit rate 1% among 290,000; PABP-poly(A) RNA binding, fluorescence polarization; inhibition, % at 35 µM;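 active means 50% or more with normal probe brightness, or confirmed in later tests; inconclusive means above 50% with abnormal brightness, or retests that disagree; inactive means below 50% or failed in later tests; about a fifth of its hits are not listed in these tables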;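 further: calls also rest on retests at 20 µM and on dose response follow-up; controls were probe without protein and protein plus probe with vehicle; some compounds called inactive have numbers as strong as hits; many hits fall short of the cut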
Target sequence (P11940 whole entry, looked up): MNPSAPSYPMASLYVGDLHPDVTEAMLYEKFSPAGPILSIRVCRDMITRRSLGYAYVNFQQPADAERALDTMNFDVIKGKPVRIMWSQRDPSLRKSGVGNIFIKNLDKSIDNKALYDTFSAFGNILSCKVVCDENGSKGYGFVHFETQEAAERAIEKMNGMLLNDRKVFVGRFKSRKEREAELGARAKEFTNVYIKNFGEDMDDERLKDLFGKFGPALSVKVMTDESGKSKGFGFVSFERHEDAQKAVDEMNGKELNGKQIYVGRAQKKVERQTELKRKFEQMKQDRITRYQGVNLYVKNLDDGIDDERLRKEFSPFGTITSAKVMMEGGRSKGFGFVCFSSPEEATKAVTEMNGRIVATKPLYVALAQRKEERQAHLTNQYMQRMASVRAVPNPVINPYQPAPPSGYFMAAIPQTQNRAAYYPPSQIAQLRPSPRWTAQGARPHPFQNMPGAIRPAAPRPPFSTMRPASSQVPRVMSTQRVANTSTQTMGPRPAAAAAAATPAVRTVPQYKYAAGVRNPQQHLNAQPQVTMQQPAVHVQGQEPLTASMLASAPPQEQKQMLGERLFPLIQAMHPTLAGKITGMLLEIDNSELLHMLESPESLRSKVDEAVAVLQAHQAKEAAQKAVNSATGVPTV
eIF4H inh – inhibitors of RNA binding by human eIF4H | Q15056 | eIF4H fluorescence polarization binding assay | inhibition, % at 35 µM | hit rate 0.94% among 290,000 | AID 2012;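 active means 50% or more with normal probe brightness, or confirmed in later tests; inconclusive means above 50% with abnormal brightness, or retests that disagree; inactive means below 50% or failed in later tests; about a fifth of its hits are not listed in these tables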;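 further: calls also rest on retests at 20 µM and on dose response follow-up; 0% = protein and probe with vehicle and 100% = probe without protein; strong numbers were not always called active; many hits fall short of the cut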
CSC inhib – cancer stem cell inhibition; cancer stem cell-like cells viability, luminescence; inhibition, % at 7.5 µM; hit rate 1.1% among 300,000;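 active means mean at 75% or more and at least half the replicates too; inconclusive means mean and replicates disagree; tested in HMLE shEcad cells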;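 further: 0% = median of negative and 100% = median of positive control wells; the first replicate is given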
Rce1 inh – blocks yeast Ras-converting enzyme; calls only; Q03530; AID 2563; hit rate 0.27% among 290,000; yeast membranes, quenched prenylated peptide cleavage fluorescence;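 active means fall in fluorescence gain of 50% or more versus controls, with final raw signal at or below 3038400; inconclusive means same 50% fall but final raw signal above 3038400; inactive means fall in fluorescence gain under 50%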;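 further: plate controls were neutral control wells for no effect and wells lacking membranes for full effect; tested at 10 µM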
Target sequence (Q03530 whole entry, looked up): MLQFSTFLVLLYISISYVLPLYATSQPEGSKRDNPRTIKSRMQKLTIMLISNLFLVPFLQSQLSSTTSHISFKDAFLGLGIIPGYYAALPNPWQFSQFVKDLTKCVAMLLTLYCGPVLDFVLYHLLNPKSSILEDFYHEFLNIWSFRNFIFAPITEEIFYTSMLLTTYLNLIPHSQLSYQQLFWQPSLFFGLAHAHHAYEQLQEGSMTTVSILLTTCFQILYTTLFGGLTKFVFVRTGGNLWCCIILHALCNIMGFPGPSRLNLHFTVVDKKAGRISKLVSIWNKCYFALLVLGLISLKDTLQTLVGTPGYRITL
MT1-MMP act inh – blocks activation of human MT1-MMP; P50281; HT1080 RFP-PRO-GFP cells, GFP/RFP ratio fluorescence, overnight; percent of plate control window, DMSO zero; GFP/RFP ratio change, % at 20 µM; hit rate 0.061% among 360,000;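 active means GFP/RFP ratio change of at least 30% with cell ATP level not reduced by more than half and red fluorescence within 50% of control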; further: strong numbers were not always called active
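Assay system: HT1080 cells carrying an RFP-PRO-GFP reporter | Dosing: Single dose of 20 µM compound, 1% DMSO final | Incubation: Cells overnight before dosing, compound overnight, 37 °C, 5% CO2 | Evaluation: GFP/RFP fluorescence ratio | Control set: DMSO and RFP-L50D-GFP cell wells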
MT1-MMP act inh RFP – further read-out of MT1-MMP act inh, marked with its call; RFP signal change, %; measured here: RFP expression control read;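 0 = vehicle wells; hits needed this value within 50% of zero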
* hit, by the source's call; i = inactive; ? = inconclusive; . = not tested or not shown.

SMILES | HIV Env fusion | Yeast UUG start | PABP polyA inh | eIF4H inh | CSC inhib | Rce1 inh | MT1-MMP act inh | MT1-MMP act inh RFP
C#CCOCCOCCOCCNc1nc(N2CCOCC2)nc(N2CCN(C(=O)[C@H](Cc3ccc(O)cc3)n3cc([C@@H](N)CC(C)C)nn3)CC2)n1 | -12 | 1 | -6 | 1 | -13 | i | 1 | 4
CCOc1ccc(CNC(=O)C2Cc3cc(S(=O)(=O)N4CCCCC4)ccc3N2C(C)=O)cc1 (stereo not given) | 7 | -14 | -13 | -8 | -6 | i | 3 | -2
Cc1cc(C(=O)CSc2nnc(C3COc4ccccc4O3)n2C)c(C)n1-c1ccc(F)cc1 (stereo not given) | -147 | 2 | 15 | -10 | 16 | i | -3 | -2
Cc1ccc(Nc2nnc(SCc3cc(=O)n4cc(C)ccc4n3)s2)cc1 | 6 | -8 | 3 | 1 | -10 | i | 1 | 5
Cc1ccc(S(C)(=O)=O)cc1C(=O)Nc1ccc(S(=O)(=O)Nc2nccs2)cc1 | -40 | 2 | . | . | . | . | -1 | 6
CCOc1ccc(-n2c(N)c(-c3nc4ccccc4n3C)c3nc4ccccc4nc32)cc1 | . | . | 1 | 11 | -6 | i | 1 | 8
COc1ccc(NC(=O)CN(C)CC(=O)N2CCCCCC2)cc1 | -54 | -14 | . | . | . | . | -2 | 4
COC(=O)c1ccc(-c2nc3cc(N)ccc3o2)cc1 | . | -57 | 1 | -6 | 24 | i | -7 | -7
CC(C)c1ccc(C(C(=O)NC2CCCC2)N(C(=O)CNC(=O)c2ccco2)c2cccnc2)cc1 (stereo not given) | . | -6 | 8 | 3 | -14 | i | -1 | 1
COc1cccc(-c2cnc(C(O)c3ccc(F)c(F)c3)[nH]2)c1 (stereo not given) | -15 | -19 | . | . | . | . | 2 | 1
CN(CC(=O)Nc1cccc(F)c1)C(=O)c1ccc(OCc2cn3ccccc3n2)cc1 | -22 | -11 | . | . | 4 | . | 1 | -1
CCn1cc[n+](C)c1P(c1ccccc1)c1ccccc1 | 21 | . | 0 | -7 | 14 | . | -7 | -14
Nc1c(C(=O)CSc2nnc(Cc3ccccc3)o2)c(=O)[nH]c(=O)n1C1CC1 | -7 | -10 | . | . | -13 | . | 4 | -2
Cc1ccc(C(=O)c2c(NC(=O)c3ccccc3C)sc(C)c2C)cc1 | 19 | 0 | -5 | 13 | -6 | i | -11 | -5
CC1=C(C(=O)Nc2ccccn2)C(c2ccc(N(C)C)cc2)n2ncnc2N1 (stereo not given) | . | -10 | -4 | -13 | -12 | i | 0 | 1
CC1=C(C)CC(C(=O)c2ccc(C)cc2)C(C(=O)O)C1 (stereo not given) | 19 | -38 | -2 | 2 | -7 | i | -2 | 13
CC(=O)N1CCC(N(CCN2CCOCC2)C(=S)Nc2ccc(C)c(C)c2)CC1 | 18 | -29 | -7 | -6 | -11 | i | -1 | 4
CN(C)CCNC(=O)CNC(=S)N(CCCN1CCOCC1)Cc1cccs1 | 3 | . | 0 | -2 | 6 | i | 5 | 5
Cc1cccc(NS(=O)(=O)c2cccc(C(=O)NCCCN3CCCC3=O)c2)c1 | 5 | -2 | . | . | -7 | i | -1 | -5
CCOC(=O)/C(C#N)=C(\O)c1ccc(NC(=O)c2ccc([N+](=O)[O-])cc2)cc1 | 9 | 3 | -1 | -2 | -4 | i | . | .

Ordered by count of non-hydrogen atoms (falling): four of the compounds above
SMILES | HIV Env fusion | Yeast UUG start | PABP polyA inh | eIF4H inh | CSC inhib | Rce1 inh | MT1-MMP act inh | MT1-MMP act inh RFP
C#CCOCCOCCOCCNc1nc(N2CCOCC2)nc(N2CCN(C(=O)[C@H](Cc3ccc(O)cc3)n3cc([C@@H](N)CC(C)C)nn3)CC2)n1 | -12 | 1 | -6 | 1 | -13 | i | 1 | 4
COc1cccc(-c2cnc(C(O)c3ccc(F)c(F)c3)[nH]2)c1 (stereo not given) | -15 | -19 | . | . | . | . | 2 | 1
CCn1cc[n+](C)c1P(c1ccccc1)c1ccccc1 | 21 | . | 0 | -7 | 14 | . | -7 | -14
COC(=O)c1ccc(-c2nc3cc(N)ccc3o2)cc1 | . | -57 | 1 | -6 | 24 | i | -7 | -7

Other records
SMILES | HIV Env fusion | Yeast UUG start | PABP polyA inh | eIF4H inh | CSC inhib | Rce1 inh | MT1-MMP act inh | MT1-MMP act inh RFP
O=C(CCc1ccccc1)Nc1cccnc1 | -17 | -21 | -7 | -6 | -15 | i | 3 | 4
CCOC(=O)c1c(C)[nH]c(C)c1C(=O)COC(=O)Cc1ccc(OC)c(OC)c1 | 1 | -4 | . | . | -11 | . | -2 | -2
CC(C)C(=O)Nc1nnc(SCC(=O)NC2CC2)s1 | -19 | -17 | -5 | -2 | 17 | i | 4 | 2
O=C(C[C@@H]1C[C@@H]2c3cc(NC(=O)C4CCC4)ccc3O[C@@H]2[C@@H](CO)O1)NCc1ccc(Cl)cc1 | -130 | -3 | . | . | . | . | 4 | 1
COc1ccc(-c2cc(C(=O)N(C)Cc3ccccc3)c3ccccc3n2)cc1 | 23 | 5 | 0 | 0 | 5 | i | -2 | -8
O=c1c(OCc2ccccc2)cccn1Cc1ccccc1 | -20 | -13 | . | . | . | . | 1 | 1
CN(C)CCSc1nc(-c2ccccc2)nc2c1COC(C)(C)C2 | 0 | 6 | -3 | 10 | 6 | i | -15 | -9
O=C1CNC(=O)N1CC(=O)N1CCCc2ccccc21 | 0 | 3 | -2 | -5 | 3 | i | -5 | 5
CC(=O)c1cccc(CN2CCN(CCc3ccccc3)C(CCO)C2)c1 (stereo not given) | 4 | . | -1 | 1 | -7 | i | 1 | -2
O=C(CNC(=O)c1ccc(S(=O)(=O)N2CCCC2)cc1)N/N=C/c1ccc(Cl)cc1Cl | 16 | -15 | 6 | -4 | . | i | -2 | -13
COCCCNC(=S)NC1CCCCC1 | 7 | -8 | -7 | -2 | 0 | i | 0 | -1
Cc1cc(N2CCN(C)CC2)ccc1NC(=O)c1ccc(-c2ccc(Cl)cc2)o1 | 26 | 26 | . | . | ? | i | -1 | -3
O=C(CN1CCN(S(=O)(=O)N2CCOCC2)CC1)Nc1cc(Cl)ccc1Cl | 12 | -14 | -5 | -5 | . | i | 1 | -3
COc1cccc(C(=O)Nc2ccc3[nH]ncc3c2)c1 | -174 | -61 | 0 | 6 | -11 | i | -3 | 4
NC(=S)Nc1cccc2cn[nH]c12 | 16 | . | 17 | 8 | 1 | i | 1 | 2
COCCCN1CN(S(=O)(=O)c2ccc(C)cc2C)c2nc3ccccc3nc21 | -2 | 7 | 1 | 0 | -14 | i | 3 | -4
CC(/C=C/c1ccccc1)=N\NC(=O)c1ccncc1 | -37 | -10 | -5 | -2 | 2 | i | 5 | 3
Fc1cccc(-n2ncc(-c3nnnn3-c3ccccc3)c2C(F)(F)F)c1 | 26 | -10 | -4 | 11 | . | i | -2 | -5
CCCCN(C)S(=O)(=O)c1cc(Br)cc2c1N(C(=O)C1CC1)CC2 | . | -1 | 5 | 2 | -4 | i | 1 | 3
Cc1cc(C)cc(Oc2ccc(-c3nnc(-c4ccccc4)o3)cc2[N+](=O)[O-])c1 | 8 | . | -8 | 12 | 1 | i | 2 | 5
Cc1cc(C)nc(SCC(=O)N/N=C\c2sccc2C)n1 | -26 | . | -2 | -12 | -2 | i | 6 | -2
CCC(C)C1=CC(=Nc2c(C)n(C)n(-c3ccccc3)c2=O)C=C(C(C)CC)C1=O (stereo not given) | ? | . | 2 | ? | 6 | i | -11 | -2
c1ccc(-c2csc3ncnc(NCCCN4CCOCC4)c23)cc1 | . | 2 | -7 | 12 | -16 | i | 6 | -9
Cc1ccnc(NS(=O)(=O)c2ccc(NC(=O)C3C4C=CC(C4)C3C(=O)O)cc2)n1 (stereo not given) | 22 | . | -4 | -4 | 3 | i | 0 | 3
COc1ccc(C(C(=O)NCC2CCCO2)N(C(=O)CNC(=O)c2cccs2)c2ccc(C(C)=O)cc2)cc1OC (stereo not given) | 11 | . | 7 | -1 | 2 | i | -1 | -2
Cc1ccccc1S(=O)(=O)NC(=O)C1(C)CCN1C(=O)Cc1cccs1 (stereo not given) | 5 | -2 | . | . | . | . | 0 | 4
Cc1[nH]c(=O)[nH]c(=O)c1CSCC(=O)OCC(=O)c1ccc(Br)cc1 | -7 | . | -15 | 4 | 0 | i | -1 | 1
C=CCSc1nc2sc3c(c2c(=O)[nH]1)CC(C)(C)OC3 | 7 | -3 | . | . | . | . | 5 | 0
CC1CCCCC1NC(=O)C1CCN(C(=O)NC2CCCCC2)CC1 (stereo not given) | 15 | -15 | 6 | -2 | 6 | i | -2 | 0
COc1ccccc1N1CCN(C(=O)c2cc3cc(Cl)ccc3[nH]2)CC1 | -7 | -1 | -8 | 11 | 59 | i | 3 | -3
CNNC(=S)Nc1ccc(Cl)cc1 | 4 | -9 | -2 | -4 | -2 | i | 4 | 3
OC1CCCN(Cc2ccccc2)C1 (stereo not given) | . | -12 | 8 | -2 | 0 | . | -2 | 1
O=C(CNCCN1CCOCC1)Nc1ccccc1Sc1ccccc1 | 3 | -10 | 29 | 10 | 6 | i | -3 | 0
O=C(NCc1cccnc1)c1cc(C2CCCN(C(=O)c3ccccn3)C2)on1 (stereo not given) | 12 | -16 | . | . | . | . | -1 | 9
COC(=O)c1sc(-c2ccc(Cl)cc2)cc1NC(=O)COCC(=O)O | 11 | . | 0 | -1 | 15 | i | 1 | -4
COc1ccc(OC)c(NC(=O)c2cc(-c3c(C)cc(C)cc3O)n[nH]2)c1 | -14 | -7 | -1 | -4 | 4 | i | 7 | -2
Cc1onc(C(=O)N2CCC(C(N)=O)CC2)c1-c1ccccc1Cl | -38 | -11 | 3 | -5 | -6 | i | 2 | 8
NC1=NN=C(N2N=C(c3ccco3)CC2(O)C(F)(F)F)n2ncnc2C1 (stereo not given) | 9 | . | 0 | 28 | 2 | i | 0 | 4
Cc1cc(=O)oc2c(C)c(OCC(=O)NCCN3CCOCC3)ccc12 | -2 | 5 | -4 | -5 | -37 | i | -2 | 4
CSc1nc2ccccc2c(=O)n1N | . | -14 | -10 | -5 | -8 | i | -4 | 4
O=C(CCCOc1ccccc1)NC1CCCc2ccccc21 (stereo not given) | -2 | . | 3 | -7 | -3 | i | -7 | -3
Cc1cc(C(=O)NNC(=S)NCC(C)C)no1 | -55 | -35 | -14 | 2 | -10 | i | 7 | 3
Cc1cc(C(=O)Nc2cccc(-c3ccc(N4CCOCC4)nn3)c2)ccc1[N+](=O)[O-] | -35 | -13 | . | . | . | i | 10 | -4
CN(C)c1ccnc(Nc2ccc(O)cc2)c1C#N | 5 | . | -8 | 10 | 6 | i | 6 | 4
CC(=O)Nc1c(Cl)cc([N+](=O)[O-])c2ccccc12 | -29 | -2 | 0 | -3 | -5 | i | 3 | 1
COc1ccc(NC(=O)CCc2nnc3ccc(N4CCC5(CC4)OCCO5)nn23)cc1 | -2 | -19 | -2 | -12 | 1 | i | 2 | 5
CCOCC(=O)Nc1cc(C)on1 | 3 | -19 | -2 | 6 | -8 | i | 0 | 6
Cc1ccc(C)c(N2CCN(C(=O)CCC(=O)Nc3nnc(C(F)(F)F)s3)CC2)c1 | 8 | -11 | -8 | 0 | -8 | i | 3 | 1
Cc1cc(C)c(S(=O)(=O)c2ccccc2)c(OC(=O)c2c(F)cccc2Cl)n1 | -47 | -21 | 6 | -9 | 0 | i | 4 | 1
Cc1ccc(C(=O)N[C@H](C(=O)OCc2cc(=O)oc3cc(C)ccc23)C(C)C)cc1 | 26 | . | 1 | 2 | 2 | i | -3 | -3
CCOC(=O)CSc1nc2c(c(-c3ccc(C)o3)c1C#N)CCCC2 | -11 | -21 | 6 | 5 | -9 | i | 1 | -4
CSCC(=O)NC1CCCN(C2Cc3ccccc3C2)C1 (stereo not given) | 6 | -4 | 9 | -4 | -1 | i | 1 | 6
